High-throughput results deposited in PubChem BioAssay by National Center for Advancing Translational Sciences (NCATS).
VACV mCherry inh: vaccinia inhibition (mCherry reporter); AID 720579; actives 0.63% (n = 310,000); Vaccinia virus mCherry reporter infection, fluorescence; about a quarter of the inactives have no number; Potency, µM (top dose mostly 36.5 µM), for inactives: at the top dose activity change, negative = inhibition, usual class: inhibitors; active = well fitted inhibition curve with a large enough effect; inconclusive = small, poorly fitted or top-dose-only effect; inactive = no such curve, though single readings can be large or run the other way; tested in A549 cells; also: nearly all actives have a fitted effect of over 35% in size; inactives centre near -10
Vaccinia Venus: inhibitors of vaccinia virus (Venus reporter) | actives 0.46% (n = 330,000) | Vaccinia virus Venus reporter expression, fluorescence | Potency, µM (top dose mostly 36.5 µM), inactives show top-dose activity change, negative = inhibition, hits mostly inhibitors; active means well fitted inhibition curve with a large enough effect; inconclusive means small, poorly fitted or top-dose-only effect; inactive means no such curve, though single readings can be large or run the other way; tested in A549 cells; also: nearly all actives have a fitted effect of over 30% in size; inactives centre near -10
The depositor's hits bear a star; i = inactive; ? = inconclusive; . = no result given; [ ] = dose if it differs, or a comment. % is scaled to controls: 0 for no effect and ±100 for the full control effect; potency is read from the fitted curve at half-maximal effect.

SMILES	VACV mCherry inh	Vaccinia Venus
CCOc1ccc(N2CC(C(=O)NCc3ccccc3)CC2=O)cc1 (centres undefined)	i	-10%
O=C1OCCN1C(=O)[C@H]1[C@H](c2ccc([N+](=O)[O-])cc2)C(c2ccc(F)cc2)=NN1c1ccc(Br)cc1	-19%	-4%
N#Cc1ccc(COC(=O)c2ccc(N3CCCC3)c([N+](=O)[O-])c2)cc1	i	-9%
COc1ccc(C(=O)NC(=S)Nc2ccccc2N2CCOCC2)cc1[N+](=O)[O-]	-15%	-14%
Cc1c(CC(=O)NCCc2ccccc2F)c(=O)oc2c(C)c3occ(C(C)(C)C)c3cc12	-7%	-8%
COc1ccc(C(=O)Nc2ccc(-c3nc4ccccc4s3)cc2C)cc1Cl	?	?
CC(=O)C1=C(O)C(=O)N(Cc2ccco2)C1c1ccc(F)cc1 (centres undefined)	i	-5%
O=C(NCCN=C1NS(=O)(=O)c2ccccc21)c1ccco1	-3%	0%
Cc1c(C(=O)OC/C(O)=C(\C#N)c2nc3ccccc3[nH]2)oc2ccccc12	-1%	?
CCOC(=O)c1c(NC(=O)COc2ccccc2F)sc2c1CC(C)(C)NC2(C)C	-21%	-12%
CCCCn1c(N)c(N(Cc2ccccc2OC)C(=O)c2sccc2C)c(=O)[nH]c1=O	i	-20%
Cn1c(=O)c2ncn(CC(=O)Nc3ccc4c5c(cccc35)CC4)c2n(C)c1=O	-18%	-7%
CS(=O)(=O)c1ccc(Cl)c(NC(=O)C2CCCN(C(=O)c3ccc(Cl)cc3)C2)c1 (centres undefined)	-4%	-8%
COc1ccc(CNC(=O)C(Cc2ccccc2)NS(=O)(=O)c2ccc3c(c2)CCN3C(C)=O)cc1 (centres undefined)	-9%	-9%
C#CCNC(=O)C[C@@H]1C[C@@]2(C(=O)OC)CCCCC=C2N(Cc2ccc3c(c2)OCO3)C1=O	i	2%
O=C(c1ccccc1)N1CCN(C(=O)C2CC2)CC1	-16%	-6%
Cc1ccc(OCCCCn2c(CCNC(=O)C3CCCCC3)nc3ccccc32)cc1	-22%	-18%
O=C(O)CCCN1C(=O)/C(=C\c2ccc(-c3nc4ccccc4s3)o2)SC1=S	i	-8%
COc1ccc(C(=O)Nc2nc3c(s2)CCCC3)cc1Cl	-2%	-17%
Cc1nc(-c2cccc(S(=O)(=O)N3CCC(C(=O)NCc4ccccc4Cl)CC3)c2)no1	7%	0%
CCN(CC)S(=O)(=O)c1ccc(C(=O)Nc2cc3oc4ccccc4c3cc2OC)cc1	i	-8%
CN(C)c1ccnc(Oc2ccc(F)cc2)c1C#N	-8%	-4%
C/C(CC(=O)Nc1ccccc1C)=N\NC(=O)Cc1csc(N)n1	-8%	-10%
CN(c1ccc(F)cc1)S(=O)(=O)c1ccc(Cl)c(C(=O)Nc2ccc3c(c2)CCC3)c1	-4%	-18%
O=C(O)C12C3CCC(O3)C1(C(=O)O)C1CCC2O1 (centres undefined)	-16%	-15%
COC(=O)C1=C(CN2CCCc3ccccc32)NC(=O)NC1c1ccc(F)cc1 (centres undefined)	?	-15%
CCOc1ccc2c(c1)C(=NNC(=O)c1ccccn1)c1cc(OCC)ccc1-2	-4%	-13%
O=C(Nc1cnc2ccccc2c1)N1CCCCC1	-2%[1.46 µM]	-14%
Cc1cc2c(cc1C)NC(CC(=O)Nc1ccccc1SC(F)(F)F)C(=O)N2 (centres undefined)	-24%	-16%
COc1ccc(-c2csc(NC(=O)CSc3nnnn3C)n2)cc1OC	-12%	-10%
Cc1nc(SCC(=O)Nc2c(C)n(C)n(-c3ccccc3)c2=O)n[nH]1	-12%	-6%
COc1cc2c(cc1OC)CN(c1nc(CN3CCCCC3)nc3sc4c(c13)CCCC4)CC2	-7%	-4%
O=C(Nc1cc(S(=O)(=O)N2CCOCC2)ccc1N1CCOCC1)c1cccc(Cl)c1	-9%	-16%
CCCCNC(=O)C1CCN(Cc2ccc(OCc3ccccc3)cc2)CC1	.	-20%
CC(=O)OC1c2ccccc2C(=O)N1Cc1ccccc1 (centres undefined)	-22%	3%
COc1ccc(Cc2nc3ccc(C(=O)NCc4cccc(C)n4)cc3o2)cc1OC	i	-2%
CCc1cccc(NC(=O)c2cc3c(s2)-c2ccccc2OC3)c1	-3%	-10%
O=c1[nH]cc(C(F)(F)F)cc1NS(=O)(=O)c1ccc([N+](=O)[O-])cc1	-10%	-6%
CCCCC1(CCCC)C(=O)NC(=Nc2cccc(C)c2)NC1=O	?	10µM*
COc1cc(/C=C(\C#N)c2nc3ccccc3[nH]2)cc(Cl)c1OCc1ccccc1Cl	-25%	-24%
CC(C)NC(=O)N(C)C[C@H]1Oc2ccc(NC(=O)C3CC3)cc2C(=O)N([C@H](C)CO)C[C@@H]1C	i	-5%
Cc1ccc(NC(=O)C2CC(=O)Nc3nncn32)cc1 (centres undefined)	-23%	-7%
Oc1ccccc1/C=N/NC(=S)NC1CC2CCC1C2 (centres undefined)	-13%	?
O=C(NCc1cccnc1)NC1CC(=O)N(c2ccc3c(c2)OCCO3)C1 (centres undefined)	-14%	15%
COC(=O)CSc1nnc([C@H](Cc2ccccc2)NC(=O)OC(C)(C)C)o1	.	-2%
COCCn1c(=O)[nH]c2cc(C(=O)Nc3nnc(C)s3)ccc21	i	-5%
COc1ccc(C(=O)COC(=O)C2CC3CCCC(C2)C3=O)cc1Br (centres undefined)	i	-15%
CCn1nnnc1SCC(=O)N1c2ccccc2Sc2ccccc21	.	-3%
CCCCC(=O)NC(NC(=S)N1CCOCC1)C(Cl)(Cl)Cl (centres undefined)	i	-4%
CCc1ccc(NC(=O)Nc2ccncc2)cc1	i	-18%
O=S(=O)(/N=C/c1ccccc1O)c1cccs1	?	0%
Cc1cc(N/N=C/c2ccc(Cl)cc2Cl)nc(NCc2ccccc2)n1	-25%	?
CCCC(C(=O)NC(C)(C)CC)N(CC1CCCO1)C(=O)CNS(=O)(=O)c1ccc(F)cc1 (centres undefined)	-11%	-9%
CCOC(=O)[C@@H]1[C@H]2COc3ccccc3[C@H]2N2C(=O)N(c3cccc(F)c3)C(=O)[C@]12C	-1%	-8%
O=C(OCc1ccc(Cl)c(Cl)c1)c1cnccn1	-25%	-8%
Nc1c(C(=O)Nc2ccccc2)sc2ncc([N+](=O)[O-])cc12	-11%	-10%
Cc1cccc(CNC(=O)c2sc3ncnc(N(C)C4CCCCC4)c3c2C)c1	-7%	-11%
O=C(O)CCN1C(=O)/C(=C\c2ccncc2)SC1=S	i	-16%
O=C(Nc1ccc(-c2nc3ccccc3[nH]2)cc1)c1ccccc1NS(=O)(=O)c1ccc(F)cc1	31%[activator]	-16%
COc1ccc(OC)c2c1sc(=NC(=O)C1CCCCC1)n2C	-3%	-6%

Another view of three compounds above.
Second line of a record – VACV mCherry inh, Vaccinia Venus
N#Cc1ccc(COC(=O)c2ccc(N3CCCC3)c([N+](=O)[O-])c2)cc1
    i, -9%
CCCCC1(CCCC)C(=O)NC(=Nc2cccc(C)c2)NC1=O
    ?, 10µM*
O=C(Nc1ccc(-c2nc3ccccc3[nH]2)cc1)c1ccccc1NS(=O)(=O)c1ccc(F)cc1
    31%[activator], -16%

(more compounds)
SMILES	VACV mCherry inh	Vaccinia Venus
CCCn1c(=S)[nH]c2cc(C(=O)N3CCc4ccccc4C3)ccc2c1=O	i	6%
CCN(CC)S(=O)(=O)c1ccc2c(c1)nc(CN(C)C(=O)Nc1ccc(Cl)cc1)n2C	-14%	-12%
CC1(C(=O)NC2CCCC2)CCC(=O)N1C1CCN(Cc2ccccc2)CC1 (centres undefined)	22%	3%
CC1(C)CC(=O)C2=C(C1)N1C(=C(C#N)C2c2ccc(Cl)cc2)N=C(N)c2ccccc21 (centres undefined)	?	-27%
COc1ccc(S(=O)(=O)NCc2ccco2)cc1-c1nnc2c3ccccc3c(C)nn12	?	-22%
COc1cc(OC)c(NC2=CC(=O)C(=O)c3ccccc32)cc1Cl	0.89µM*	3.2µM*
Cc1cc(C)n2nc(S(=O)(=O)NCCc3ccccc3)nc2n1	8%	0%
Cc1cccc(/C=N/NC(=O)NC2CCCCC2)c1	?	-25%
N#CC(C(=O)c1ccccc1Cl)=C1SCCCS1	-20%	-13%
COc1ccc2[nH]c3c(c2c1)CCN[C@H]3C	-21%	-6%
COc1ccc(S(=O)(=O)Nc2ccc3c(c2)OCCO3)cc1Cl	?	-26%
O=C(Cn1nnc2ccccc21)N/N=C\c1cccs1	-14%	-3%
CCOc1ccc(C(=O)CCC(=O)NC2=NCCS2)cc1	-12%	0%
Cc1ccc(Nc2nnc(SCC(=O)N(C)C3CCS(=O)(=O)C3)s2)cc1 (centres undefined)	-30%	-27%
CCN(CC)CCN=Cc1c(O)n(C2CCCCCC2)c(=O)[nH]c1=O	.	-1%
CCOC(=O)C1=C(C)N=c2s/c(=C\c3ccc(O)c([N+](=O)[O-])c3)c(=O)n2C1c1ccccc1OC (centres undefined)	-16%	-7%
CCn1ncc(Br)c1C(=O)Nc1cc(C)cc(C)c1	-14%	-12%
COC(=O)c1ccc(-n2c(C)cc(C(=O)COC(=O)C3=COCCO3)c2C)cc1	-19%	-9%
Cc1cc2nnc(SC(C)C)n2c2ccccc12	.	?
O=C(Nc1ccc2nc(SCCOc3ccccc3Cl)sc2c1)c1ccco1	-6%	-18%
CCc1ccc(Nc2sc(C(=O)c3ccc(F)cc3)c(N)c2S(=O)(=O)c2ccccc2)cc1	-5%	-21%
CCC(=O)OC1(C)C(=O)C=C2C=C(CCCC(=O)OC)OC=C2C1=O (centres undefined)	i	19%
CC(C)c1csc(CN2CCC(CO)(Cc3cccc(F)c3)CC2)n1	-13%	-21%
Cc1ccc(OCC(=O)NCC(=O)OCc2cc(=O)n3nc(C(C)C)sc3n2)cc1	-8%	-5%
COc1cccc(N(C(=O)c2snc(C(N)=O)c2N)C(C(=O)NCc2ccccc2)c2ccc(O)cc2)c1 (centres undefined)	-10%	1%
Cc1ccccc1NC(=O)CSc1nc(Nc2ccccc2)nc(N2CCOCC2)n1	i	-10%
COCCNC(=O)/C(C#N)=C1\N=C(NC(=O)c2ccco2)c2ccccc21	?	-17%
COC(=O)[C@]12CCCCC=C1N(CCC1=CCCCC1)C(=O)[C@H](CC(=O)NCc1cccc3ccccc13)C2	15%	-8%
O=C(NCc1ccccc1)N1CCC(Cc2ccccc2)CC1	-11%	-6%
CC(=O)Nc1ccc(NC(=O)C2(C)Cc3c(-c4ccccc4)ccnc3O2)cc1 (centres undefined)	-26%	-5%
O=C(CNc1cccc(S(=O)(=O)N2CCCC2)c1)Nc1cccc(F)c1	i	-17%
CC(C)NC(=O)c1nn2c(C(F)(F)F)cc(-c3ccco3)nc2c1Cl	-2%	-8%
COc1ccccc1CN=C1NC(=O)C(CC(=O)Nc2ccc(C(C)=O)cc2)S1 (centres undefined)	i	0%
O=C(NCC1CCCO1)c1ccc(S(=O)(=O)Nc2ccccc2F)cc1 (centres undefined)	-11%	-11%
COc1ccc(C)cc1Nc1n[n+](-c2ccccc2)c(-c2cc(OC)c(OC)cc2Br)s1	-21%	?
O=C(Oc1ccc[nH]c1=O)c1cccc(Cl)c1	i	-12%
CSCCC(NC(=O)c1ccco1)C(=O)N1CCCCCCC1 (centres undefined)	i	-8%
COCCN1CCN(C(=O)c2ccc3nc(Cc4ccc(OC)c(OC)c4)oc3c2)CC1	-24%	-26%
O=C(CSc1nnc2ccccn12)Nc1ccc(S(=O)(=O)N2CCOCC2)cc1	-9%	-6%
Cc1ccc(C)c(N(CC(=O)NC2CCCC2)C(=O)c2csnn2)c1	0%	-2%

Exported field by field: part of the list above.
O=C(Oc1ccc[nH]c1=O)c1cccc(Cl)c1
- VACV mCherry inh: i
- Vaccinia Venus: -12%
CSCCC(NC(=O)c1ccco1)C(=O)N1CCCCCCC1 (centres undefined)
- VACV mCherry inh: i
- Vaccinia Venus: -8%
COCCN1CCN(C(=O)c2ccc3nc(Cc4ccc(OC)c(OC)c4)oc3c2)CC1
- VACV mCherry inh: -24%
- Vaccinia Venus: -26%
O=C(CSc1nnc2ccccn12)Nc1ccc(S(=O)(=O)N2CCOCC2)cc1
- VACV mCherry inh: -9%
- Vaccinia Venus: -6%

By substructure: those above containing a COOH group.
SMILES	VACV mCherry inh	Vaccinia Venus
O=C(O)CCCN1C(=O)/C(=C\c2ccc(-c3nc4ccccc4s3)o2)SC1=S	i	-8%
O=C(O)C12C3CCC(O3)C1(C(=O)O)C1CCC2O1 (centres undefined)	-16%	-15%
O=C(O)CCN1C(=O)/C(=C\c2ccncc2)SC1=S	i	-16%

Additional compounds
SMILES	VACV mCherry inh	Vaccinia Venus
O=C1NC[C@@H](Cc2cccc3ccccc23)N(CCCCC2CCCCC2)C1=O	i	-10%
CCOC(=O)N1CCN(c2nc(-c3ccco3)cc(C(F)(F)F)n2)CC1	-16%	0%
COc1cc(CNC(C)c2ccccc2)cc(Br)c1OCc1ccc(F)cc1 (centres undefined)	?	?
O=C(CSc1nnc2ccccn12)NNC(=O)c1ccc(Cl)cc1	-9%	-13%
Cc1ccc(NC(=O)CC(NCC2CCCO2)C(=O)O)cc1C (centres undefined)	i	0%
CCCn1c(SCC(=O)c2ccc3c(c2)OCCO3)nc2c1c(=O)n(C)c(=O)n2C	-20%	-10%
COc1ccccc1C(=O)NCCC(=O)N1CCN(C(=O)c2ccco2)CC1	-10%	-5%
CN(C)/C=N/c1ncc(C(=O)OC(C)(C)C)s1	i	-2%
N#Cc1ccc(C(=O)N2CCC3CC2c2cc(-c4ccc(F)cc4)ccc23)cc1 (centres undefined)	-17%	0%
CCCCNC(=S)N/N=C/C1=CCC2CC1C2(C)C (centres undefined)	-19%	-15%
